gsp agonist: agonists of gsp mutant (McCune-Albright syndrome) | hit rate 0.13% among 340,000 | gsp mutant cells, cAMP HTRF, 30 min; control for the full effect not named in the record | Potency, µM (top dose mostly 76.9 µM), for inactives: at the top dose activation (cAMP increase), hits mostly activators; active = well fitted activation curve with a large enough effect; inconclusive = small, poorly fitted or top-dose-only effect, or another doubt; inactive = no such curve, though single readings can be large or run the other way; cell line not stated here;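 note: phosphodiesterase inhibitor Ro 20-1724 added with compounds to block cAMP breakdown; potency is the fitted concentration of half-maximal effect; nearly all actives have a fitted effect of over 60% in size; about a fifth of the inactives were tested at one dose only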
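Cells stably selected in G418 were plated at 2000/well, grown 16-24 hr, then given compounds in DMSO with the PDE inhibitor […] (300 uM solution added) for 30 min at 37C; cAMP was read by HTRF.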
gsp antag: antagonizes gsp, the McCune-Albright syndrome mutation; gsp-mutant cells, cAMP HTRF, 30 min; control for the full effect not named in the record; Potency, µM (top dose mostly 76.9 µM), without a hit: at the highest dose activity change, negative = inhibition, actives largely listed as inhibitors; hit rate 0.4% among 340,000; AID 624288; active = falling curve of any shape with a large fitted effect; inconclusive = falling curve, mostly with a smaller effect; inactive = flat or rising curve; cell line not stated here;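 note: intracellular cAMP measured with PDE inhibitor Ro 20-1724 present during compound exposure; potency is the fitted concentration of half-maximal effect; % is set by controls: 0 for no effect and ±100 for the full control effect; nearly all actives have a fitted effect of over 65% in size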
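Measurement of cellular cAMP by homogeneous time-resolved fluorescence following a 30 min compound exposure at 37C. The PDE inhibitor […] was present throughout; the assay buffer was DPBS with 0.05% BSA and 0.005% Tween 20.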
ClpP mod: qHTS Assay for Activators of ClpP; purified B. subtilis ClpP, FRET peptide cleavage, 20 min; hit rate 1.9% among 340,000; Potency, µM (titrated, usually from 57.5 µM), without a hit: top-dose activity change, negative = active; ATP-dependent Clp protease proteolytic subunit (Bacillus subtilis (strain 168)), P80244; active = well fitted falling curve with a large enough effect; inconclusive = small, poorly fitted or top-dose-only effect; inactive = no such curve, though single readings can be large or run the other way; note: potency is the fitted concentration of half-maximal effect; the source files actives as falling curves though it sought activators and does not explain the sign; nearly all actives have a fitted effect of over 65% in size; many hits overshoot -100%
Target sequence (P80244 whole entry, looked up): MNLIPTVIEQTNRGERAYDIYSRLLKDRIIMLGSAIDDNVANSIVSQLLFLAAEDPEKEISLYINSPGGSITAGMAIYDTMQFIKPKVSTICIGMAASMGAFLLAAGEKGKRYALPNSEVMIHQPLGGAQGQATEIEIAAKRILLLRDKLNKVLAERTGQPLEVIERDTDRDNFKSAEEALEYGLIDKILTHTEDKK
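Purified B. subtilis ClpP, 10 microg/mL final in Tris/HCl pH8 with KCl, BSA, glycerol and Tween-20, cleaved an Abz/nitrotyrosine-quenched decapeptide. Fluorescence (ex 320, em 430) was read at 0 and 20 min at room temperature. Delta was normalized to 5.8 microM ADEP and DMSO/no-enzyme controls.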
TRPML1 blocker: inhibitors of human TRPML1 channel | TRPML1-inducible cells, Ca2+ dye fluorescence, FDSS; hits give low values; inhibition of EC80 agonist-evoked calcium signal | activity change, negative = inhibition, % (concentration not given with the values) | hit rate 0.02% among 390,000 | AID 624415; in the data active means activity change below about -50%; inconclusive means about -30% to -50%; inactive means above about -30%;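 note: stimulus is agonist 54-4 at its EC80 concentration; % is set by controls: 0 for no effect and ±100 for the full control effect; compound concentration not given in the record; the text of the record puts the active cut at -80%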
Target sequence (Q9GZU1 whole entry, looked up): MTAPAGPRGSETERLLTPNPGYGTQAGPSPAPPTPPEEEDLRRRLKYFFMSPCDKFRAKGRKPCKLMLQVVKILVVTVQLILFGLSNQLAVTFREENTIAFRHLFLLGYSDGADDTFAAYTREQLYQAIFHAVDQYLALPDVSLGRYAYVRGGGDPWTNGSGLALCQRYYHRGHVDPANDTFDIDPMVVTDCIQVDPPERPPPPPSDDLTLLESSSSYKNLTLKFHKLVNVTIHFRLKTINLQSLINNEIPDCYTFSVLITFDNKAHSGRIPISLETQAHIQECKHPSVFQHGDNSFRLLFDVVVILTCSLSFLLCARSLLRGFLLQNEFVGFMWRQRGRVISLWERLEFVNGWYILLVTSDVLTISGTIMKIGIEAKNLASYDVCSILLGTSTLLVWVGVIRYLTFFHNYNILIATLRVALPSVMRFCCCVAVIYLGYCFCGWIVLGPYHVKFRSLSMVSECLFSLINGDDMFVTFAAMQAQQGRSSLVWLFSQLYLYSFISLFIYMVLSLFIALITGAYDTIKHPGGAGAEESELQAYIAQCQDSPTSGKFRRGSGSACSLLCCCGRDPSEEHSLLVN
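Calcium fluorescence in TRPML1-DL cells induced overnight with Tet: a 110 s read after compound pin addition, then a 110 s antagonist read after challenge with 54-4 at 4 uM final (EC80).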
TRPML1 agonist: agonists of human TRPML1 channel; Q9GZU1; TRPML1-expressing cells, Ca2+ dye fluorescence, FDSS; host cell line not named in the record; reference of the full effect not given here; activation, % (concentration not given with the values); hit rate 0.12% among 410,000; AID 624414; in the data active = activation above about 50%; inconclusive = about 30% to 50%; inactive = below about 30%; note: 0% is about no effect; the text of the record puts the active cut at 80%
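Agonist activity was taken from a 110 s kinetic Ca2+ dye read on the FDSS after pinning compounds onto TRPML1-DL cells. The cells were seeded at 1,500/well with Tet inducer, incubated about 16 h, then dye-loaded at room temperature.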
Menin-MLL FL inh: menin-MLL binding inhibition, fluorescein peptide | AID 1766 | 290,000 tested, under 10 active | Fluorescence polarization, fluorescein-MLL peptide displacement from menin | FP activity change, % at 61.4 µM; inconclusive = falling polarisation curve, or a change in total fluorescence; inactive = total fluorescence flat and polarisation flat or rising; no compound was filed as active; the % refers to the polarisation; negative = inhibition;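 note: % of control where 0% means no effect; inhibitors lower the polarisation; unlabelled MLL peptide was the positive control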
Starred values were filed as active, the others as inactive; ? = inconclusive; . = not tested or not shown; & = joins results of further samples; [ ] = dose if it differs, or a comment.

Sequence of screens – gsp agonist, gsp antag, ClpP mod, TRPML1 blocker, TRPML1 agonist, Menin-MLL FL inh
> CCOc1ccc(CCNC(=O)Cn2c(-c3nonc3N)nc3ccccc32)cc1OCC
  -21%, -1%, -0.3%, -3, -0.4, 1.7
> CC1c2cc3c(cc2CCN1S(=O)(=O)c1ccccc1)OCCCO3 (configuration not stated)
  -9%, 0%, -3.6%, 1, 0.2, -2.0
> CC1CC(C)CN(S(=O)(=O)c2ccc(C(=O)NCc3ccco3)cc2)C1 (configuration not stated)
  1%[15.4 µM], -9%, ., -6, 2.3, 3.3
> COc1cc(N=c2c([N+](=O)[O-])nn(-c3ccc4c(c3)OCCO4)n2O)cc(OC)c1
  -9%, 4%, -2.0%, -2, -0.9, 4.1
> CNC(=O)c1cc(S(=O)(=O)NC2CCCCCC2)ccc1C
  -14%, 6%, 1.0%, 0, 3.6, 4.2
> NC(=O)C1CCN(C(=O)C2c3ccccc3C(=O)N3CCc4ccccc4C23)CC1 (configuration not stated)
  -38%[inhibitor], 9%, -20%, 25, 0.5, -1.1
> Fc1cccc2sc(Nc3nc4cc5c(cc4s3)OCO5)nc12
  16%, 5%, 14µM*, 14, -0.3, 5.4
> Cc1ccc2c(Cl)cc(Cl)c(O)c2n1
  -26%[15.4 µM], 3%, -1.1%, 8, -0.1, 1.9&-0.9
> CCN(CC)CCOC(=O)c1ccc(NC(=O)C2(c3ccccc3)CCCC2)cc1
  5%, 10%, 1.1%, 18, 0.6, -1.3
> Cc1ccc(NC(=O)CN(C)C(=O)CNC(=O)c2sc3ccccc3c2Cl)cc1
  2%[15.4 µM], -7%, 2.0%, -12, 0.1, .
> O=C(CN1CCN(c2ccc(F)cc2)CC1)Nc1ccc(F)c(F)c1
  ?, 1%, -0.7%, -9, 0.8, -0.8
> CCCn1cc(NC(=O)c2cc3n(n2)C(C(F)(F)F)CC(c2ccccc2)N3)cn1 (configuration not stated)
  13%, 8%, -1.8%, 1, 1.4, 18
> O=C(c1ccccc1F)N1CCN(C2CCC(c3ccccc3)CC2)CC1 (configuration not stated)
  4%[15.4 µM], 2%, 1.0%, 2, 0.2, -0.3
> COc1ccc(CCN2C(=O)N(c3ccc(OC)cc3)C(=O)C2CC(=O)Nc2ccccc2)cc1 (configuration not stated)
  16%[15.4 µM], 0%, ., -12, 2.5, 0.4
> O=S(=O)(c1ccc(Cl)cc1)N(CCCN1CCOCC1)Cc1cccs1
  14%, -7%, 1.1%, 9, 0.2, -1.3
> COc1ccc(NC(=O)C2CC(c3cc(OC)c(OC)c(OC)c3)=NO2)cc1OC (configuration not stated)
  -5%, -3%, -1.3%, -19, 0.8, -1.6
> Cc1ccc(S(=O)(=O)N(CC(=O)NCCc2ccc(Cl)cc2)c2ccccc2C)cc1
  ., ., -1.8%, -1, 0.1, .
> O=C(Cn1cnc2ccccc2c1=O)NCC(=O)N1CCN(c2ccccn2)CC1
  22%, 4%[15.4 µM], ?, -26, 0.4, 0.0
> Cc1cccc(/N=C/c2c(O)cc(C)oc2=O)n1
  1%, 8%, -6.4%, 12, 0.2, ?
> Cc1ccc([C@H]2C[C@H](O)[C@@H](n3cc(-c4ccc(F)cc4)nn3)CN2CC2CCCCC2)cc1
  24%, ., -1.3%, 13, 0.3, .
> CSc1nc2ccc(NC(=O)NC(=O)c3c(F)cccc3F)cc2s1
  2%[15.4 µM], 8%, -4.1%, 11, 0.5, -2.1
> CCCOC(=O)c1sc2nc3c(cc2c1N)C(=O)CCC3
  ?, ?, ?, -1, 0.1, -1.1
> COc1ccc(Nc2nc(-c3ccccc3)nc3ccccc23)cc1
  ?, -18%, -9.7%, -21, 2.4, -2.4
> COc1ccc(CC(=O)Nc2ccccc2C(C)=O)cc1S(=O)(=O)N1CCOCC1
  -52%[inhibitor], 2%, 35µM*, -14, 0.0, .
> C=CCn1c(Cc2ccc(OC)cc2)nnc1SCC(N)=O
  -5%, -14%, 0.0%, 6, 0.1, 5.9
> CC(=O)NCCc1ccc(C(=O)Cn2cnc3ccccc3c2=O)cc1
  20%[15.4 µM], 9%, ., -28, 0.4, -2.4
> NC(=O)c1ccc(NC(=O)c2cnc3ccccc3n2)cc1
  13%, 6%, -0.6%, -4, -0.6, 3.1
> Cc1ccc(CSc2nc(=O)c3c(C)cc(C)nc3n2C2CC2)cc1
  ., ., 1.0%, 1, 0.7, .
> Nc1ncnc2c1ncn2[C@@H]1O[C@H](CNC(=O)[C@@H]2C[C@H](F)CN2)[C@@H](O)[C@H]1O
  ., 4%, 1.5%, -5, 0.2, .
> CC1CC(C)(C)NC(=S)N1CCCC(=O)NCc1ccccc1 (configuration not stated)
  13%[15.4 µM], -14%, 0.9%, 45, -0.5, 1.7
> NC[C@H]1O[C@@H](n2ccc(N)nc2=O)[C@H](O)[C@@H]1O
  ., ., -1.3%, 10, 0.3, .
> CSc1nsc(NN)n1
  17%, ., -1.3%, 8, -0.5, .
> O=c1cc(CN2CCN(S(=O)(=O)c3cccc(Cl)c3)CC2)c2ccc(O)cc2o1
  7%[15.4 µM], -30%, ., -5, -0.1, .
> CCOc1ccc(C2C3=C(CC(C)(C)CC3=O)N(CC(=O)O)C3=C2C(=O)CC(C)(C)C3)cc1OCC
  -25%, -4%, 0.6%, -19, -0.1, 1.7
> CC(=O)Oc1ccc(C(=O)Nc2ccc3c(c2)OCCO3)cc1
  0%[15.4 µM], 7%, 0.1%, 8, -0.1, 0.8
> Cc1ccc(CNC(=O)CN2C(C)CCCC2C)cc1 (configuration not stated)
  -8%, -3%, 0.4%, -10, 0.1, -0.3
> Cc1cc(C)c(S(=O)(=O)NC2CCN(Cc3ccccc3)CC2)c(C)c1
  -16%, 11%, -0.7%, -13, -0.8, -2.3
> NC1=NC(=O)C(Cc2ccc(OC(F)(F)F)cc2)S1 (configuration not stated)
  -38%[inhibitor], 10%, 1.0%, 20, 0.5, 2.9
> CCOC(=O)C1CCCN(C(=O)CSc2ccc(Br)cc2)C1 (configuration not stated)
  1%[15.4 µM], 1%, ., -22, 1.6, -0.1
> O=C(CNS(=O)(=O)c1ccc(Br)s1)NCC1COc2ccccc2O1 (configuration not stated)
  -1%, -8%, 0.2%, 10, -0.5, 0.6
> CCCCCn1c(=O)[nH]c2cc(C(=O)N3CCN(c4cccc(C)c4)C(C)C3)ccc2c1=O (configuration not stated)
  ., ., 24%, 7, 1.5, .
> COc1cccc(-c2ccc(NC(=O)C3CCCN(Cc4ccco4)C3)cc2)c1 (configuration not stated)
  -46%[inhibitor], 2%, -3.0%, 0, -0.2, .
> O=[N+]([O-])c1ccc(-c2ccc(/C=N/O)o2)cc1
  11%[15.4 µM], 9%, 0.0%, 13, -0.7, 0.9
> COc1ccc(-c2cc(C)no2)cc1S(=O)(=O)N1CCN(c2cccc(C)c2)C(C)C1 (configuration not stated)
  -35%[inhibitor], -14%, ?, 20&18, 1.4&0.0, .
> O=C(CCS(=O)(=O)c1ccc(Br)s1)NC1CCCCCC1
  -31%[inhibitor], 7%, -2.4%, 18, -0.8, 0.5
> CCOC(=O)C1=CCN(S(=O)(=O)c2ccccc2F)C1c1ccc(Cl)cc1 (configuration not stated)
  ., ., -0.9%, -14, 2.3, .
> Cc1ccc(C(=O)Nc2cccc(C(=O)OCc3cc(=O)n4c5c(sc4n3)CCCC5)c2)cc1
  ., ., 4.5%, 8, 2.7, .
> COc1ccc(CCNC(=O)c2ccc3c(c2)NC(=O)CS3)cc1OC
  -8%, -20%, 0.0%, -2, -0.4, -0.9
> CCN1C[C@@H]2[C@@H]3C(=O)N(C)C(=O)[C@@H]3[C@](Cc3ccccc3)(C1=O)N2C(=O)c1ccc(C(C)(C)C)cc1
  10%, 3%, -3.1%, 3, 0.8, .
> CCOc1ccc(Nc2c(S(=O)(=O)c3ccccc3)cnc3ccc(CC)cc23)cc1
  ., ., 0.0%, 3, 0.6, .
> S=C(NCc1ccc(Cl)cc1)NCc1ccco1
  5%, 12%, 1.4%, 8, -0.1, 2.2
> COCC(=O)N1CCC(Oc2ccc(C(=O)NCCc3ccncc3)cc2)CC1
  -5%[15.4 µM], -6%, ., 2, -0.1, -1.3
> CCOCCCN(C(=O)c1ccco1)C(C(=O)NC1CCCC1)c1ccc(OC)cc1 (configuration not stated)
  14%[15.4 µM], 0%, ., 12, 0.4, -11
> CC(C)(C)CN1CCNC(=O)C1CC(=O)NCc1cccc(-n2cccn2)c1 (configuration not stated)
  -34%[inhibitor], 0%, ., -6, -0.4, -2.8
> CCCN1C(=O)N(C)C(N(O)C(=O)NC)C1(C)C (configuration not stated)
  0%, 12%, -0.6%, 5, -0.1, 1.1
> C/C=C(\CS(=O)(=O)c1ccccc1)S(=O)(=O)c1ccccc1
  1%, 11%, 1.2%, 3, -0.2, 3.0
> Brc1ccc(CN2CCN(Cc3c[nH]c4ccccc34)CC2)cc1
  -4%[15.4 µM], 20%, -0.4%, -6, 0.9, -18
> Cc1cc(Cl)ccc1OC(C)C(=O)Nc1ccc(S(=O)(=O)Nc2cnc3ccccc3n2)cc1 (configuration not stated)
  9%, -33%, -12%, 4, -0.3, 2.2
> Cc1ccc(-c2noc(CCCC(=O)NC3CCCC3)n2)cc1
  22%, -10%, ., 26, 1.4, -2.9
> COc1ccc(N2CCN(/C(=N\S(=O)(=O)c3ccc(C)cc3)Nc3nc(C)cc(C)n3)CC2)cc1
  -36%[inhibitor], -3%, -1.3%, 6, 0.3, -0.1

Carrying on.
Sequence of screens – gsp agonist, gsp antag, ClpP mod, TRPML1 blocker, TRPML1 agonist, Menin-MLL FL inh
> COc1ccc(N2CC(C(=O)Nc3nnc(SCC(=O)NC4CCCC4)s3)CC2=O)cc1 (configuration not stated)
  -18%[15.4 µM], 4%, -1.3%, 5, -0.2, .
> O=C(CN1CCSc2ccccc21)N1CCN(c2ccccc2)CC1
  ., ., -3.2%, 0, 0.8, .
> CCC(C)[C@H](NC(=O)c1cc2cc(Cl)ccc2n1C)C(=O)N1CCC[C@H]1C(=O)O (some centres not stated)
  ., -6%, 5.0%, ., ., -0.3
> CC(C)CC(=O)N1CCN(Cc2ccccc2Cl)CC1
  4%, -1%, -1.4%, -8, -0.4, -6.3
> Cc1nnsc1C(=O)Oc1ccc(C(C)C)cc1
  ., ., -2.1%, 2, -0.7, .
> O=S(=O)(c1cccc2nsnc12)N1CCN(c2ccc(F)cc2)CC1
  31%, -6%, ., 50, 0.9, -5.6
> O=C(CN1CC(c2ccccc2)CC1=O)OCc1cccc(Br)c1 (configuration not stated)
  -7%, -30%, -2.8%, 27, 0.4, 0.6
> CCn1cc(C(=O)NCCc2ccc(C)cc2)c(=O)c2cc(S(=O)(=O)N3CCC(C)CC3)ccc21
  ., ., -3.4%, -19, -1.1, .
> CCOC(=O)c1[nH]c(C)c(CCC(=O)N2CCN(c3ccc(Cl)cc3)CC2)c1C
  ., ., 0.4%, 2, -0.3, .

Compound activity deposited in PubChem BioAssay by National Center for Advancing Translational Sciences (NCATS).
